Assay outcomes deposited in PubChem BioAssay by National Center for Advancing Translational Sciences (NCATS).
NPR1 antag = antagonists of human natriuretic peptide receptor Npr1; P16066; HEK293 hNpr1 GloSensor cGMP, ANP-stimulated luminescence; Potency, µM (series often up to 46.3 µM), for the others: top-dose activity change, negative = inhibition, actives largely listed as inhibitors; 76,000 compounds, 1.6% hits; active = well fitted inhibition curve with a large enough effect; inconclusive = small, poorly fitted or top-dose-only effect; inactive = no such curve, though single readings can be large or run the other way;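 further: nearly all actives have a fitted effect of over 60% in size; nearly all hits also lower the signal before the agonist is added; a reference antagonist and vehicle were the controls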
Target sequence (P16066 whole entry, looked up): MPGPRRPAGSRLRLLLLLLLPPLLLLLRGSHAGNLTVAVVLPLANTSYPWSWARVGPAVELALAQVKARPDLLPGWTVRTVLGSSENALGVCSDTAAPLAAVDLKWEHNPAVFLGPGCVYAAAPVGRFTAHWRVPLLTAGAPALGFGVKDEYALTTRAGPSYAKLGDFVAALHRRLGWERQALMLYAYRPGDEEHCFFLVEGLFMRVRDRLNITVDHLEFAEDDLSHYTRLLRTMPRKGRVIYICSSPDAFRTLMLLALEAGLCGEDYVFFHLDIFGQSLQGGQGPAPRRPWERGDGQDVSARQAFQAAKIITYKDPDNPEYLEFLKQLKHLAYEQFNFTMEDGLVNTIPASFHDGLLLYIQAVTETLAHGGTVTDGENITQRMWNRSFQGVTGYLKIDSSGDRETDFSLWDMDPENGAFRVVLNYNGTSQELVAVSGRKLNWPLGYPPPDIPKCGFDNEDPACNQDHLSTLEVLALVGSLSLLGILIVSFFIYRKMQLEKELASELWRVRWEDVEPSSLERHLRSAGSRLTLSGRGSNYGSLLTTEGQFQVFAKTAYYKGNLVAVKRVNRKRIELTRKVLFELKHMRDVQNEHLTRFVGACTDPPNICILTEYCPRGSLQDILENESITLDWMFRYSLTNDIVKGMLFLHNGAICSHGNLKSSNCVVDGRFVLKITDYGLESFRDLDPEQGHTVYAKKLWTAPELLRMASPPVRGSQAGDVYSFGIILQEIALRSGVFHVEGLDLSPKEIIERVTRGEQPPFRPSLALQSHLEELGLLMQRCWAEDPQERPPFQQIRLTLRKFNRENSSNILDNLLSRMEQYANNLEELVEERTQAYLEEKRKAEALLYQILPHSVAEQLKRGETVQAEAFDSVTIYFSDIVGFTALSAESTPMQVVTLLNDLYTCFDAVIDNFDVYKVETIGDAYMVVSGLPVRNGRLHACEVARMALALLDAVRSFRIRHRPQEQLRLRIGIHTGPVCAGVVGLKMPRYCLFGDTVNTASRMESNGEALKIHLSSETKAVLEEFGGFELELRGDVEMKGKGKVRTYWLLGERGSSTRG
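HEK293 cells stably expressing human Npr1 and cGMP GloSensor pGS-40F, loaded 2 h with 2% GloSensor reagent, given compound 30 min at room temperature. Luminescence read before and 20 min after 0.1 nM hNppA.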
Starred values were filed as active, the others as inactive; u = inconclusive; & = joins results of further samples; [ ] = remark or other dose. On the % scale 0 is the no-effect control and ±100 the full control effect; potency means the concentration at half of the fitted maximal effect. Only part of the results is shown (hit frequency here may not be typical).

NPR1 antag | Compound
-1%[70.6 µM] | COCCOc1ccc(-c2noc([C@@H]3CCCN3C3CCC3)n2)cn1
u | O[C@H]1CC[C@@H](Cc2cc(-c3ccc(F)cc3)on2)O[C@@H]1CNC1CCCCC1
-5%[70.6 µM] | CCCNC(=O)N[C@@H]1CCC[C@@H](C(=O)N(CC)CC)CC(=O)N(C)C1
4%[70.6 µM] | COCc1cc(C[C@@H]2C[C@H](NS(C)(=O)=O)C2(C)C)no1
6% | Fc1ccc(OCCc2noc(C3CCCCN3)n2)cc1 (stereo unspecified)
u | Cc1ccc2nc(C3CCN(Cc4ccc(C#N)cc4)CC3)[nH]c(=O)c2c1
-24% | CCOc1ccc(-c2cc3c(=O)n(CCNC(=O)c4ccccc4OC)ccn3n2)cc1
3% | O=C(CSc1ccc(Cl)cc1)N[C@@H]1COCC[C@@H]1OCC1CC1
7% | CS(=O)(=O)c1cnc(NCc2ncc[nH]2)nc1C1CCCNC1 (stereo unspecified)
3% | CCCN1C(=O)CC[C@H]2CN(c3cc(OC)nc(N)n3)CC[C@H]21

Overlap with the part before: six entries, followed by the next part.
NPR1 antag | Compound
6% | Fc1ccc(OCCc2noc(C3CCCCN3)n2)cc1 (stereo unspecified)
u | Cc1ccc2nc(C3CCN(Cc4ccc(C#N)cc4)CC3)[nH]c(=O)c2c1
-24% | CCOc1ccc(-c2cc3c(=O)n(CCNC(=O)c4ccccc4OC)ccn3n2)cc1
3% | O=C(CSc1ccc(Cl)cc1)N[C@@H]1COCC[C@@H]1OCC1CC1
7% | CS(=O)(=O)c1cnc(NCc2ncc[nH]2)nc1C1CCCNC1 (stereo unspecified)
3% | CCCN1C(=O)CC[C@H]2CN(c3cc(OC)nc(N)n3)CC[C@H]21
6% | CS(=O)(=O)CC(O)c1cc2n(n1)CCN(c1cncc(C(N)=O)n1)C2 (stereo unspecified)
6% | COc1cc2c(cc1CN1CCn3nc(C(O)CO)cc3C1)OCCO2 (stereo unspecified)
0% | COc1ccc(CN2CCC(CO)(CCCc3ccccc3)CC2)c(Cl)c1OC
4%[70.6 µM] | O=C1N[C@@H]2CCN(C(=O)c3cccnc3)[C@@H]2C(=O)N1c1ccc(Oc2ccccc2)cc1
10% | COc1cccc(CC(=O)N2CCC(c3n[nH]c(=O)n3-c3ccc(C)cc3)CC2)c1
1% | O=C1CCN(Cc2cccc(F)c2)CCCOCCN1
-26% | Cc1ccc(OCCC2CCN(C(=O)c3ccsc3)C2)cc1 (stereo unspecified)
-1%[70.6 µM] | O=C(C1CC1)N1CCC(c2nn(Cc3ccccc3)c(=O)[nH]2)CC1
-7% | O=C(COc1cccc(-c2nnc3n2CCCC3)c1)Nc1ccc(Cl)cc1F
0% | Cc1cc(C(=O)N2CCCC(CCc3c(F)cccc3F)C2)c(=O)n(C)c1C (stereo unspecified)
6% | Cc1cnc(-c2ccccc2)n1C1CCNCC1
3% | O=C(NCCc1csc(-c2cnccn2)n1)C1CC2(CCNCC2)CN1 (stereo unspecified)
5% | COCC1CN(C(C)=O)CC12CCN(Cc1cccc(OC)n1)CC2 (stereo unspecified)
-9% | O=C1CCN(C2CCCC2)CCOCCN1
-14% | CN(C)S(=O)(=O)N1CCC2(CCC(=O)N(CC3CC3)CC2)CC1
u | O=C(c1ccc(-c2ccccc2CO)nc1)N1CCC(CCc2ccccc2)CC1
3%[70.6 µM] | CN(C)c1cccc(-c2nc(N3CCOCC3)cc3c2CN(Cc2cnn(C)c2)C3=O)c1
2% | Cc1ccc(CN2CCC3(CC2)CC(C(=O)N2CCOCC2)N(C)C3)s1 (stereo unspecified)
2%[70.6 µM] | Cc1csc(Nc2ccc3ncn(Cc4ccccn4)c(=O)c3n2)n1
-8%[70.6 µM] | COc1ccc2nc([C@H]3CCN(Cc4ccc(F)c(F)c4)C3)[nH]c2c1
4% | CCCCc1nn(CC(=O)N2CCCC(O)C2)c(=O)n1CCc1ccccc1 (stereo unspecified)
-9% | COC[C@@H]1CN(C(=O)c2cccc(C#N)c2)C[C@H]1c1ccncc1
-20% | O=C(NCCC1CCN(Cc2ccccc2)CC1)C1CCN(c2cnn(Cc3ccccc3)c(=O)c2)C1 (stereo unspecified)
-1% | Cc1ncsc1CN1CCCN(Cc2ccncc2)C(c2ccccc2)CC(=O)NCC1 (stereo unspecified)
u | Cc1ccc(S(=O)(=O)N2CCCC(Cn3c(C4CC4)nc4cccnc43)C2)cc1 (stereo unspecified)
2% | O=C(Nc1nnc(C2CC2)s1)C1CC(=O)N(c2n[nH]c3cc(Br)ccc23)C1 (stereo unspecified)
-1% | CCOc1cc(=O)n2c(c1C(=O)Nc1cccc(Cl)c1)CCCC2
5% | CCc1[nH]ncc1C(=O)NC1CC(c2nnc(Cn3ccnc3)n2C)C1 (stereo unspecified)
0% | O=C(CN1CCCc2nc(-c3ccccc3)ncc2C1=O)NCCCN1CCCC1=O
2% | Cc1ccc(F)c(C(=O)N2CC(C)(C)C(C)(O)C2)c1Cl (stereo unspecified)
-2%[70.6 µM] | CC(=O)N1CCOC[C@H](Oc2ccc(S(C)(=O)=O)cc2)C1
-1% | Cc1cc(CNC(=O)c2cc(-c3ccco3)nc3c(Cl)cccc23)no1
-5%[70.6 µM] | C=CCn1cc2c3c(cccc31)[C@H](CC(C)C)N[C@H](C(=O)NC1CCC1)C2
7% | Cc1ccc(-c2nc(C(=O)NCc3ccc(F)cc3)no2)cc1
5% | CCC(=O)Nc1ccc(OCC(=O)NCc2ccccc2OC(C)CC)cc1 (stereo unspecified)
0% | Cc1ccc(NC(=O)CN2C(=O)NC3(CCC(C)CC3)C2=O)cc1C (stereo unspecified)
1%[70.6 µM] | COc1ccc(CC(=O)N2CCOC[C@H](Oc3ccccc3)C2)cc1
-1% | CC(C)Cc1ccc(S(=O)(=O)N2C[C@@H](F)C[C@H]2C(=O)N2CCc3ccccc3C2)cc1
1.8µM* | Cc1noc(C)c1-c1cc2c(c(-c3cccc(OC(C)C)c3)c1)C(=O)N(C)C2
3% | Cc1ccccc1CC(=O)Nc1cccc(-c2nnc3n2CCCC3)c1
2% | C=CCC1(CO)CCCN(C(=O)CCCn2nc(C)cc2C)C1 (stereo unspecified)
4%[70.6 µM] | O=C1c2cc(N3CCOCC3)nc(-c3cccnc3)c2CN1c1ccccc1
-18%[70.6 µM] | O=C1COc2ccc(Nc3ccccc3F)nc2CN1Cc1ccc(F)cc1
5% | CCC(=O)Nc1ccc(C2(C(=O)O)CCCCC2)cc1
9% | CN1C(=O)c2cccn2CC1C(=O)Nc1ccc(N2CCOCC2)cc1 (stereo unspecified)
-9% | COc1ccc(-c2noc([C@@H]3CCCN3C(=O)c3ccc(OC)cc3C)n2)cc1
3% | COc1ccc(NC(=O)N(C)CC2CCOCC2)cc1Cl
u | Cc1cn2nnc(C(=O)NCc3ccc(C(C)C)cc3)c2c(=O)[nH]1
-12% | CC(C)N1CCN(C(=O)CCC[C@@H]2[C@H]3CCCN4CCC[C@@H](CN2C(=O)c2ccccc2)[C@@H]34)CC1
18% | O=C(CN1C(=O)NC2(CCOCC2)C1=O)Nc1ccc(Cl)cc1

(next part)
NPR1 antag | Compound
1% | COc1ccc(C(=O)N2CCn3c(nnc3[C@@H]3C[C@@H](O)CN3C(C)C)C2)c(OC)c1
4%[70.6 µM] | Cc1nnc(-c2cc(N3C[C@@H](C)O[C@@H](C)C3)ccn2)n1C1CCCCC1
-13% | Cc1cccc(CC(=O)N2CCN(c3cc(-c4cccs4)[nH]n3)CC2)c1
-17%[70.6 µM] | COc1ccc(CN2Cc3[nH]nc(-c4ccnn4C)c3CC2=O)cc1
-3%[70.6 µM] | CCN(CC)C(=O)[C@@H]1CCC[C@@H](NC2CCN(C)CC2)CN(C)C(=O)C1
-14% | CC1(c2ccccc2)N(Cc2cccnc2)C(=O)OC12CCN(C(=O)c1ccc(Oc3ccccc3)cc1)CC2 (stereo unspecified)
1% | C=CCN1CCN(Cc2cccc(OCC(O)CN(C)C3CCCCC3)c2)CC1 (stereo unspecified)
-2% | CN(Cc1ccccc1)C(=O)CN1C(=O)COc2ccc(C(=O)COc3ccccc3F)cc21
-17% | CN(C)c1cccc(C(=O)Nc2ccc3ncnc(N4CCCCC4)c3c2)c1
3% | O=C(CCNC(=O)c1cnccn1)NC1CCCc2c1[nH]c1ccccc21 (stereo unspecified)
-13% | Cc1cccc(OCC(=O)N2CCC(c3n[nH]c(=O)n3-c3ccccc3)CC2)c1
-3% | O=C(Cc1ccncc1)N1CC(F)(F)C[C@H]1c1nc(C2CC2)no1
-1% | COCCc1noc(CNC(=O)c2sc3cccc(F)c3c2Cl)n1
-15% | COc1cccc(C(=O)Nc2ccc3c(c2)CN(Cc2ccc(OC)cc2OC)C(=O)CO3)c1
-16% | O=C1CC(c2ccccc2)N(C(=O)c2cccs2)CCCCCCN1 (stereo unspecified)
4% | O=C1CCN(C(=O)c2ccsc2)CCCC(c2nc(-c3cnccn3)no2)CCN1 (stereo unspecified)
0% | NS(=O)(=O)c1ccc(C(=O)N2CCC(CO)(CN3CCCC3)CC2)cc1
2% | CCN(CCN(C)C)C(=O)c1coc(COc2ccc3sc(C)nc3c2)n1
7%[70.6 µM] | CS(=O)(=O)N1CC[C@H](c2nc3cc(Cl)ccc3o2)C1
-1%[70.6 µM] | COc1cccc(NC(=O)[C@@H]2C[C@H](c3ccc(F)cc3)N([S+](C)(=O)[O-])C2)c1
4% | Cc1noc(C)c1CC(=O)NC1CCc2nnc(C)n2CC1 (stereo unspecified)
-15% | O=C(NC1CCN(c2cc(-c3ccccc3)[nH]n2)C1)c1ccccc1 (stereo unspecified)
u | CCn1c2c(c(=O)n1-c1ccccc1)CCN(C(=O)c1ccc(Cl)cc1)C2
-5% | O=C(c1ccoc1)N1CCCN(CCc2ccccc2)c2ccccc21
-1% | CCN1C(=O)Cc2cc(C(=O)Nc3ccccc3)ccc21
1% | Cn1ccnc1C(=O)C1CCCN(Cc2cc(=O)c3cccc(Cl)c3[nH]2)C1 (stereo unspecified)
0% | O=C(CCn1ccn2nc3c(c2c1=O)CCCC3)Nc1cccc(OC(F)(F)F)c1
-7% | CCn1cc(S(=O)(=O)N2CCCC(c3nn[nH]n3)C2)cn1 (stereo unspecified)
4% | COc1ccc(C(=O)N2CCC(N3C[C@H](O)C[C@H]3C(=O)NC3CCCCC3)CC2)c(OC)c1
4% | COc1ccc(NC(=O)N2C[C@@H]3C[C@H](C2)c2ccc(NC(=O)Nc4cccc(C#N)c4)c(=O)n2C3)cc1

4 records picked at random from the list so far:
NPR1 antag | Compound
u | Cc1ccc(S(=O)(=O)N2CCCC(Cn3c(C4CC4)nc4cccnc43)C2)cc1 (stereo unspecified)
-12% | CC(C)N1CCN(C(=O)CCC[C@@H]2[C@H]3CCCN4CCC[C@@H](CN2C(=O)c2ccccc2)[C@@H]34)CC1
5% | COCC1CN(C(C)=O)CC12CCN(Cc1cccc(OC)n1)CC2 (stereo unspecified)
4%[70.6 µM] | COCc1cc(C[C@@H]2C[C@H](NS(C)(=O)=O)C2(C)C)no1

(continued)
NPR1 antag | Compound
4% | COc1cccc(C(=O)N2CCOCC2CC(=O)N2CCNC(=O)C2)c1 (stereo unspecified)
-1% | O=C(N[C@@H]1CN(c2ncccn2)C[C@H]1CO)c1ccco1
-2% | O=C(CCn1ccn2nc3c(c2c1=O)CCCC3)NC1CCCCCC1
-11% | COc1ccc(NC(=O)Cn2c(-c3ccc(F)cc3)nc(C)cc2=O)cc1OC
0% | Cc1cnc(C(=O)N2CCC(c3nnc(CN4CCCC4)n3C3CC3)CC2)cn1
1% | O=C(CCc1c[nH]c2ccccc12)N1CCC(c2nccn2CC2CC2)CC1
3% | CS(=O)(=O)N(C1CC1)C1CCOC2(CCN(C(=O)Nc3ccccc3)CC2)C1 (stereo unspecified)
-2% | CCN1c2cc(C(=O)Nc3cccc(F)c3)ccc2C(=O)N2CCCCCC21 (stereo unspecified)
1% | COC(=O)[C@@H]1Cc2c([nH]c3ccccc23)[C@H]2C[C@H](NCc3cccs3)C[C@@H](c3ccc(F)cc3)N21
-22% | O=S(=O)(c1ccccc1)N1CCCC(c2nc(CCOCC3CCCC3)no2)C1 (stereo unspecified)
-9%[70.6 µM] | CC(=O)N1CCCC(c2nn(-c3ccccc3)c(=O)[nH]2)C1 (stereo unspecified)
3% | COc1ccc(C(=O)N[C@@H]2CN(C)C[C@H]2CN(C)C)c(C)c1
4%[70.6 µM] | CN(c1ccccc1)c1ccc2nnc(-c3cc(C(=O)N4CCCCC4)ccn3)n2n1
2% | O=C(c1ccc(OC(F)(F)F)cc1)N1CCC(c2n[nH]c(=O)n2-c2ccccc2)CC1
-1% | COCc1c(C(=O)N2CCCC3(CCC(=O)N(C4CC4)C3)C2)noc1C (stereo unspecified)
-13% | CCC1(O)CCC12CCN(C(=O)c1cccc(C)c1)CC2 (stereo unspecified)
5% | CNc1nc(C(=O)N2CCC3(CC2)c2nc[nH]c2CCN3C)cs1
1% | Cc1ccc(CNC(=O)N2CCC(Cn3c(C)cnc3C3CCOCC3)CC2)cc1
-7% | CN(CC1(C)CCOCC1)C(=O)c1ccccc1Cl
-2% | O=C1CCN(C(=O)C2CCN(C(=O)C3COc4ccccc4O3)CC2)CCCCCCN1 (stereo unspecified)
12%&-25% | Cc1ccc([S+](=O)([O-])N2CCC3(C2)C(=O)N(CCc2ccccc2)c2ccccc23)cc1 (stereo unspecified)
-4% | COc1ccc(C(=O)NC2CCN(c3cnn(C)c(=O)c3)CC2)cc1F
